VDR inh – inhibitors of human vitamin D receptor; VDR-SRC2-3 peptide fluorescence polarization, 2 h; Potency, µM, for inactives: max response, negative = inhibition, usual class: inhibitors; P11473; 400,000 compounds, 0.93% hits; active = well fitted inhibition curve with a large enough effect; inconclusive = small, poorly fitted or top-dose-only effect, or another doubt; inactive = no such curve, though single readings can be large or run the other way; also: series mostly up to about 120 µM
Target sequence (P11473 whole entry, looked up): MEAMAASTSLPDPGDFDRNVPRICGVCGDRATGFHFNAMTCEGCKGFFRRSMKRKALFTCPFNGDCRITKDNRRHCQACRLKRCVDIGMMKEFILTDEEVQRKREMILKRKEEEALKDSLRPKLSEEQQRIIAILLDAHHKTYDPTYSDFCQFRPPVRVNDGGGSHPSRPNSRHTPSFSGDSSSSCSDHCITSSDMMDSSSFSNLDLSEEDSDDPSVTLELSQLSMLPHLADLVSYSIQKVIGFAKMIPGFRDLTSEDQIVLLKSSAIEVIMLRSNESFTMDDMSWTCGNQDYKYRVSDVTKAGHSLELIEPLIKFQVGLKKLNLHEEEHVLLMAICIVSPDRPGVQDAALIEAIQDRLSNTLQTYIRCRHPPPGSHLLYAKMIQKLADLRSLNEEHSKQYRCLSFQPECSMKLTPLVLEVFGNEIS
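Signal is fluorescence polarization, reporting how far test compounds block the interaction of VDR with the SRC2-3 coregulator peptide after a 2 h room-temperature incubation.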
Starred values were filed as active, the others as inactive; ? = inconclusive; & = joins results of further samples; [ ] = remark or other dose. % is scaled to controls: 0 for no effect and ±100 for the full control effect; potency is read from the fitted curve at half-maximal effect. Only part of the results is shown; the hit share may differ from the screen's.

SMILES	VDR inh
Cn1nc(N)c2c(-c3ccc(Cl)cc3)c(C#N)c(N)nc21	3.8%
O=C(NCCCN1CCOCC1)C(C(=O)NCCCN1CCOCC1)c1ncc(C(F)(F)F)cc1Cl	6.0%
Cc1ccc(CSC2=CS(=O)(=O)c3ccccc3N2)cc1	3.8%
CCOc1cc2c(cc1OCC)C(C(=O)O)C(c1cc(Br)c(O)c(OC)c1)N(C)C2=O (configuration not stated)	5.8%
C=CCC1CCCC(=O)N2CC[C@H](O)C12 (some centres not stated)	-6.1%&-22.4%
CC1(c2ccc(OC(F)F)cc2)NC(=O)N(CC(=O)c2ccc3c(c2)OCO3)C1=O (configuration not stated)	7.6%
N#C/C(=C\c1ccc(OCc2ccccc2)cc1)C(N)=O	?
Cc1ccc(-n2c([O-])nc(-[n+]3ccccc3)c2C=O)cc1	7.1%
CCOC(=O)CCCNC(=O)CCCNC(=O)C(c1ccccc1)c1ccccc1	-9.3%
CCC1CCCN1Cn1cnc2c([nH]c3ccc(Cl)cc32)c1=O (configuration not stated)	-5.7%
CC(C)(C#N)NC(=O)C(=O)c1c(-c2ccccc2)cc2ccccn12	5.8%
CC1Cc2ccccc2N1CC(=O)Nc1ccc2c(c1)OCO2 (configuration not stated)	17.8%
O=C(c1ccc(Cl)cc1)c1c[nH]c(C(=O)C(Cl)(Cl)Cl)c1	12.2%
COc1ccc(CCNC(=O)Nc2ccc(F)cc2F)cc1OC	0.7%
CCOc1[nH]n(-c2ccccc2)c(=O)c1C=NCc1cccnc1	-10.7%
Cc1cc(Cl)ccc1OC(C)C(=O)Nc1ccc(C(=O)Nc2ccccc2C(=O)O)cc1 (configuration not stated)	?
CCOC(=O)c1ccc(NC(=O)Cn2cc(C(=O)c3ccc(CC)cc3)c(=O)c3ccc(C)nc32)cc1	4.5%
CCC(C)NC(=O)Cn1cnc2sc(C)c(S(=O)(=O)N3CCN(c4ccccc4OC)CC3)c2c1=O (configuration not stated)	38.2%&-4.0%[activator]
CCOC(=O)c1nc(-c2ccc(OC)c(OC)c2)cnc1C#N	-7.0%
CCN(CCn1cccn1)C(=O)c1cc(COc2c(F)cccc2F)on1	0.4%
O=S(=O)(c1ccccc1)n1nc(-c2ccccc2)nc1NCc1ccc(Cl)cc1	-5.6%
Cc1c(C)c2ccc(OCC(=O)NCCN3CCOCC3)cc2oc1=O	-21.1%
CCCn1cc(S(=O)(=O)c2cccc(Cl)c2)c(=O)c2cc(F)c(N3CCN(CC)CC3)cc21	7.0%
CCOC(=O)C(C)Sc1nc(-c2ccccc2)nc2ccc(F)cc12 (configuration not stated)	2.6%
CCCCCc1cc(=O)oc2c(C(CCN(CC)CC)c3cc(OC)c(OC)c(OC)c3)c(OC)cc(OC)c12 (configuration not stated)	-13.0%

Retrieved one by one from the list above (2):
SMILES	VDR inh
CC1(c2ccc(OC(F)F)cc2)NC(=O)N(CC(=O)c2ccc3c(c2)OCO3)C1=O (configuration not stated)	7.6%
Cc1ccc(-n2c([O-])nc(-[n+]3ccccc3)c2C=O)cc1	7.1%

Next part
SMILES	VDR inh
O=C(c1cnccn1)N1CCC2(CC1)CCN(c1cccc(-c3ccccc3)c1)CC2	-1.0%
COc1ccc([C@H]2CC(=O)C=C(c3ccccc3)C2)cc1	-11.1%
O=C(O)/C=C\c1cn(-c2ccccc2)nc1-c1cc2ccccc2o1	-4.0%
Cc1cc(NC(=O)/C(C#N)=C/c2ccco2)n(-c2ccccc2)n1	1.5%
CC(=O)c1cccc(NC(=O)C2CC(=O)N(c3ccc4c(c3)OCCO4)C2)c1 (configuration not stated)	-15.8%
C=C(C)CSc1nnc(-c2ccc(OC)cc2)n1N	-4.7%
O=C(CSc1cn[nH]n1)Nc1cccc(C(F)(F)F)c1	-11.8%
Cc1csc2c(=O)sc(NC(=O)c3ccc(F)cc3)nc12	-13.6%
COc1cccc(CN(C)Cc2c(O)ccc3ccccc23)c1	0.2%
Cc1cc(C)nc(Sc2ncnc3c2oc2ccccc23)n1	7.4%
CCCCOc1ccc(CN(CCO)CCO)cc1[N+](=O)[O-]	16.1%
O=C(O)CCS(=O)(=O)Cc1ccccc1Cl	15.8%
CCOc1cc(/C=C2/NC(=O)N(CC(=O)OC)C2=O)ccc1OC	2.4%
Cc1cc(OCC(=O)N2CCOCC2)cc2oc(=O)c3ccccc3c12	-16.7%
CC(C)c1nnc(-c2ccc(Cl)cc2)c(N(C)C)n1	2.1%
OCCCc1nc2n(n1)C(c1cccc(Cl)c1)C=C(c1ccccc1)N2 (configuration not stated)	1.7%
O=C(O)CSc1nnc(Cc2cccc3ccccc23)n1-c1cc(C(F)(F)F)cc(C(F)(F)F)c1	-23.9%
O=C(CSc1ncn[nH]1)c1cc2ccccc2o1	0.8%
O=c1c2ccccc2nc2oc3ccccc3n12	-14.5%
COc1ccc(CNC(=O)Cn2c(=O)n(CC(=O)N3CCCCC3)c(=O)c3sccc32)cc1	-18.5%
O=C1C(=O)c2ccccc2C(O)=C1CC=C(Cl)Cl	-28.7%
Cc1cccc(NC(=O)CNC(=O)c2cccc(-n3cccc3)c2)c1C	5.2%
COc1ccc(/C=N/n2cnnc2SCc2ccccc2)cc1	13.3%
CC1(C)CC(=O)C=C(NCC(O)c2ccccc2)C1 (configuration not stated)	-17.7%
CC1=C(C(=O)OCC(C)C)C(c2ccc(F)cc2)NC(=O)N1 (configuration not stated)	-23.9%

The results go on.
SMILES	VDR inh
CCOc1ccc(N=Nc2c(C)noc2C)cc1	3.4%
COC(=O)c1cccc(S(=O)(=O)N2CCC(c3nc4ccccc4o3)CC2)c1	-19.7%
Cc1ccc(Cn2ccc(NC(=O)c3cc(-c4ccc5c(c4)OCO5)on3)n2)cc1	2.1%
N#C/C(=C/c1ccc(Sc2nc3ccccc3[nH]2)o1)c1cccc(Br)c1	1.5%
CCN(CC)S(=O)(=O)c1ccc(N2CCOCC2)c(NC(=O)c2ccc(F)cc2)c1	22.4%
COc1ccc(C)cc1NC(=S)N1CCOCC1	4.1%
O=C(O)Cn1c(COc2ccc(Cl)cc2)nc2ccccc21	-8.3%
CC(=O)N1CCN(C(=O)COc2ccc3oc4c(c3c2)CCCC4)CC1	-12.8%
Cc1c(NS(=O)(=O)N2CCCC2)c(=O)n(-c2ccccc2)n1C	-10.0%
CCOC(=O)c1c(C)c(C(=O)NCCc2ccc(S(N)(=O)=O)cc2)c(C)n1CC	-5.4%
O=S(=O)(NCCNS(=O)(=O)c1ccccc1)c1ccccc1	-2.9%
Cc1ccc(NC(=O)N2CCC(C(=O)NCC(C)C)CC2)cc1	2.5%
CCN(CC)c1ccc(NC(=O)c2cnn(CC)c2)cc1	-3.2%
Cc1ccc(NC(=O)N2CCCCC2)cc1NC(=O)N1CCCCC1	10.3%
CC1=CCC(C(C)(C)NC(=O)c2ccccc2)C/C1=N\O (configuration not stated)	19.6%
CCn1nc(NS(=O)(=O)c2ccc(C)cc2)c2cc3ccccc3nc21	1.5%
CCCn1c(C)cc(C(=O)CN2C(=O)c3ccccc3C2=O)c1C	-10.6%
COc1cc(/C=C2/SC(=S)N(CCC(=O)Nc3ccc(C(=O)O)cc3)C2=O)cc(OC)c1OC	-13.0%
CCS(=O)(=O)N1CCC(C(=O)NCc2cccs2)CC1	-5.2%
COc1cccc(-c2c(C(=O)N/N=C(\C)c3cccs3)nnn2-c2nonc2N)c1	-8.4%
CCn1cc(C(=O)NCCO)c(=O)c2cc(F)c(N3CCN(C)CC3)cc21	11.3%
CCN(CC)CCNC(=O)CCCCn1c(=S)[nH]c2c([nH]c3ccc(OC)cc32)c1=O	22.0%
Cc1cccc(CSCC(=O)NCc2ccc(S(N)(=O)=O)cc2)c1	-16.6%
COc1ccc(-c2noc(CN(C)C(=O)CCN3C(=O)[C@H]4CC=CC[C@H]4C3=O)n2)cc1	-4.2%
OC(COc1ccccc1)CN1CCCCCC1 (configuration not stated)	-15.8%

(list continues)
SMILES	VDR inh
NC(=O)[C@@H]1CSSCCC(=O)N[C@@H](CCCCN=C(N)N)C(=O)NCC(=O)N[C@@H](CC(=O)O)C(=O)N[C@@H](Cc2c[nH]c3ccccc23)C(=O)N2CCC[C@H]2C(=O)N1	-4.8%
CCC(CC)=N/N=C/c1c(O)n(CC)c2cc(C3=NNC(=O)CC3)ccc12	-4.1%
Cc1cc(=O)oc2c(C)c(OCC(=O)NCC3CCC(C(=O)O)CC3)ccc12 (configuration not stated)	-1.5%
CC(=O)c1cccc(N(CC(=O)Nc2ccc(F)cc2)S(C)(=O)=O)c1	-6.3%
COc1ccccc1C(=O)N/C(=C\c1ccc(Br)cc1)C(=O)NCCO	-24.4%
COC(=O)c1ccccc1SC1CC(=O)N(c2cccc(C)c2)C1=O (configuration not stated)	-4.1%
CCOC(=O)C1=C(C)NC(=O)/C1=C\N(C)C	-6.9%
Cc1ccc(C)c(NC(=O)CSc2nc(C)cc(C)c2C#N)c1	-10.0%
O=[N+]([O-])c1cccc(Cl)c1NCCNS(=O)(=O)c1ccccc1	-1.2%
CCOc1ccc(NC(=O)c2sc3nc(N4CCOCC4)c4c(c3c2N)CCCC4)cc1	-27.2%
Cc1nc(NC(=O)c2ccco2)sc1C(=O)Nc1ccc(Br)cc1	7.4%
Cc1ccc(-c2csc(NC(=O)CCNC(=O)c3ccccc3Cl)n2)cc1	-0.8%
COc1ccc(CCNC(=O)CC2SC(=NCCC(C)C)NC2=O)cc1OC (configuration not stated)	-4.7%
Cc1cccc2cc3ccccc3nc12	-6.3%
N#CC1(NC(=O)COC(=O)Cn2[nH]c(=O)c3ccccc3c2=O)CCCCC1	-15.5%
Nc1cccc2c(O)cc(S(=O)(=O)O)cc12	12.6µM*
O=C(c1ccc(Cn2ccc([N+](=O)[O-])n2)cc1)N1CCN(Cc2ccccc2)CC1	13.8%
CCN1CCc2c(OCC(=O)Nc3cccc(C)c3)cccc2C1=O	-14.3%
Cc1ccc(NC(=O)CSc2nn(-c3ccc(Cl)cc3)c(=S)s2)cc1S(=O)(=O)N(C)C	-10.3%
Cc1ccc(S(=O)(=O)Cn2nnnc2C(CC(C)C)N2CCN(C(=O)c3ccco3)CC2)cc1 (configuration not stated)	-3.1%
Cc1ccc(NC(=O)C2CCN(C(=O)c3ccccc3C)CC2)nc1	-1.1%
Cc1ccc(OCC(=O)N/N=C/c2c[nH]c3ccccc23)c([N+](=O)[O-])c1	-12.8%
CCOC(=O)C1=C(C)NC2=C(C(=O)CCC2)C1c1cc(OC)ccc1OC (configuration not stated)	18.1%
Cc1ccc(NC(=O)C2(c3ccccc3)CCOCC2)cc1	-15.4%
CC1=Nc2cc(C(=O)NCc3ccco3)ccc2Sc2ccc(C)cc21	-8.1%

Further compounds follow:
SMILES	VDR inh
CCNC(=O)CN(c1ccc(CC)cc1)S(C)(=O)=O	9.1%
O=C(COC(=O)c1c(Cl)cccc1Cl)NC1CCCCC1	-1.8%
CC(CC(=O)Nc1ccc(F)cc1)S(=O)(=O)c1ccc2c(c1)NC(=O)CO2 (configuration not stated)	-9.3%
CCCCN(CC)CCCNC(=O)c1cc2cc3ccc(C)cc3nc2o1	-2.1%
Cc1c(C(=O)N(Cc2ccc(Cl)cc2)CC2CCCO2)oc2ccc(F)cc12 (configuration not stated)	15.2%
O=C(C[n+]1cc(-c2ccccc2)n2c1CCC2)OCc1ccccc1	-12.4%
COC(=O)C(CC(=O)c1ccc(Cl)cc1)c1ccc(C(C)C)cc1 (configuration not stated)	-0.4%
CS(=O)(=O)N(CCc1ccccc1)CC(=O)NCc1ccc(Cl)cc1	-4.1%
Cc1cnc(NC(=O)CSc2ccccc2)s1	25.3%
O=C(CC1SC(N2CCCCC2)=NC1=O)Nc1ccc(C(=O)NCCc2ccc(F)cc2)cc1 (configuration not stated)	-6.3%
O=C(CN1CCN(c2ccccc2O)CC1)Nc1ccnn1C1CCCC1	44.9%[activator]
CCOc1ccc(S(=O)(=O)N2CCCCC2)c(C)c1C	-7.2%
CO[C@H]1[C@H](O[C@H]2O[C@@H](C)[C@@H](O[C@@H]3C[C@](C)(O)[C@H](OC(=O)CC(C)C)[C@H](C)O3)[C@@H](N(C)C)[C@@H]2O)[C@@H](CC=O)C[C@@H](C)[C@@H](O)/C=C\C=C/C[C@@H](C)OC(=O)C[C@H]1OC(C)=O	-7.7%
Cc1ccc(OCC(=O)c2ccc(Cl)s2)c([N+](=O)[O-])n1	?
O=C1CCc2cc(S(=O)(=O)NC3CCCCC3)ccc2N1	4.7%
Cn1c2ccccc2c2cnn(CC(=O)Nc3ccc(F)cc3F)c(=O)c21	-10.5%
C#CCn1c(=NC(=O)CSCC(=O)N2CCOCC2)sc2ccccc21	?
C[C@@H]1NC(=O)c2cc([N+](=O)[O-])cc(I)c2NCCCC[C@@H](C(N)=O)NC(=O)[C@H](CC(N)=O)NC1=O	-4.5%
Cc1ccc(NC(=O)c2nc[nH]c2C(=O)NCCCCNC(=O)c2[nH]cnc2C(=O)Nc2ccc(C)cc2)cc1	-2.5%
O=C(Nc1nc(-c2ccccn2)cs1)c1cc2ccccc2o1	6.6%
Cc1ccc2c(CNCCc3ccccc3)c(C(=O)O)n(Cc3ccccc3C)c2c1	6.6%
Cc1ccc(S(=O)(=O)NCC(=O)OCC(=O)NC(=O)c2cccn2C)cc1	6.9%
Clc1ccc(N/N=C/c2cccs2)nn1	-6.4%
Cc1nc2c(-c3ccc(F)cc3)c(C)nn2c(C)c1CCC(=O)Nc1ccccc1	-2.2%
Cc1noc(C)c1COC(=O)C1COc2ccccc2O1 (configuration not stated)	-1.0%

Seven entries out of the list, ordered by length of the SMILES, lowest first:
SMILES	VDR inh
Cc1cnc(NC(=O)CSc2ccccc2)s1	25.3%
Cc1noc(C)c1COC(=O)C1COc2ccccc2O1 (configuration not stated)	-1.0%
O=C(COC(=O)c1c(Cl)cccc1Cl)NC1CCCCC1	-1.8%
O=C(CN1CCN(c2ccccc2O)CC1)Nc1ccnn1C1CCCC1	44.9%[activator]
Cc1ccc2c(CNCCc3ccccc3)c(C(=O)O)n(Cc3ccccc3C)c2c1	6.6%
CC(CC(=O)Nc1ccc(F)cc1)S(=O)(=O)c1ccc2c(c1)NC(=O)CO2 (configuration not stated)	-9.3%
Cc1ccc(NC(=O)c2nc[nH]c2C(=O)NCCCCNC(=O)c2[nH]cnc2C(=O)Nc2ccc(C)cc2)cc1	-2.5%

Screening data (PubChem BioAssay)
